gsp ag – qHTS for Agonist of gsp, the Etiologic Mutation Responsible for Fibrous Dysplasia/McCune-Albright Syndrome: qHTS; gsp mutant cells, cAMP HTRF, 30 min; control for the full effect not named in the record; Potency, µM (top dose mostly 76.9 µM), without a hit: at the top dose activation (cAMP increase), most hits filed as activators; actives 0.13% (n = 340,000); active = well fitted activation curve with a large enough effect; inconclusive = small, poorly fitted or top-dose-only effect, or another doubt; inactive = no such curve, though single readings can be large or run the other way; cell line not stated here;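 further: phosphodiesterase inhibitor Ro 20-1724 added with compounds to block cAMP breakdown; potency means the concentration at half of the fitted maximal effect; nearly all actives have a fitted effect of over 60% in size; about a fifth of the inactives were tested at one dose only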
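Cells in DMEM/10% FBS with G418 were pretreated with compounds in DMSO plus […] (300 uM stock) for 30 min at 37C. cAMP was measured by HTRF (cAMP-d2 plus anti-cAMP antibody-K) after 30 min at room temperature.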
ClpP mod – qHTS Assay for Activators of ClpP. ATP-dependent Clp protease proteolytic subunit (Bacillus subtilis (strain 168)), P80244. Potency, µM (doses to about 57.5 µM), without a hit: at the top dose activity change, negative = active. actives 1.9% (n = 340,000). purified B. subtilis ClpP, FRET peptide cleavage, 20 min; active = well fitted falling curve with a large enough effect; inconclusive = small, poorly fitted or top-dose-only effect; inactive = no such curve, though single readings can be large or run the other way; further: potency means the concentration at half of the fitted maximal effect; the source files actives as falling curves though it sought activators and does not explain the sign; nearly all actives have a fitted effect of over 65% in size; many hits overshoot -100%
Target sequence (P80244 whole entry, looked up): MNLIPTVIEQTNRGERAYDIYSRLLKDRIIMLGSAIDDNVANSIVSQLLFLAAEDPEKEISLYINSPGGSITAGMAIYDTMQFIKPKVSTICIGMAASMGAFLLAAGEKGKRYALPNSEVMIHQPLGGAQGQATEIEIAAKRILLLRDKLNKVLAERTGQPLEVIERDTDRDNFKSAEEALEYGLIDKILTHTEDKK
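Purified B. subtilis ClpP, 10 microg/mL final in Tris/HCl pH8 with KCl, BSA, glycerol and Tween-20, cleaved an Abz/nitrotyrosine-quenched decapeptide. Fluorescence (ex 320, em 430) was read at 0 and 20 min at room temperature. Delta was normalized to 5.8 microM ADEP and DMSO/no-enzyme controls.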
gsp antag – qHTS for Antagonists of gsp, the Etiologic Mutation Responsible for Fibrous Dysplasia/McCune-Albright Syndrome: qHTS; gsp-mutant cells, cAMP HTRF, 30 min; control for the full effect not named in the record; Potency, µM (highest dose often 76.9 µM), inactives show at the highest dose activity change, negative = inhibition, usual class: inhibitors; actives 0.4% (n = 340,000); AID 624288, 2012; active = falling curve of any shape with a large fitted effect; inconclusive = falling curve, mostly with a smaller effect; inactive = flat or rising curve; cell line not stated here;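 further: intracellular cAMP measured with PDE inhibitor Ro 20-1724 present during compound exposure; potency means the concentration at half of the fitted maximal effect; on the % scale 0 is the no-effect control and ±100 the full control effect; nearly all actives have a fitted effect of over 65% in size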
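Cells in G418 medium, seeded 16-24 h, 37C; buffer exchange to DPBS + 1 mM CaCl2, 0.5 mM MgCl2, 0.05% BSA; cpds in DMSO + […] (300 uM stock), 30 min 37C; HTRF cAMP detection.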
CtBP-E1A blk – qHTS Assay for Inhibitors of the CtBP/E1A Interaction | CtBP / adenovirus E1A interaction (AlphaScreen) | AlphaScreen GST-E1A/His-CtBP binding, 1536-well; stronger effect = lower value; control for the full effect not named in the record | activity change, % (test concentration not listed) | actives 0.49% (n = 340,000) | AID 651724, 2012; in the data active means activity change below about -65%; inconclusive means about -30% to -65%; inactive means above about -30%; further: on the % scale 0 is the no-effect control and ±100 the full control effect; compound concentration not given in the record
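Homogeneous bead-based format: GST-tagged E1A captured on glutathione donor beads, His-tagged CtBP on nickel acceptor beads; compounds precede bead addition by 2 h at 37 °C.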
Sfp inh – qHTS Assay for Inhibitors of Bacillus subtilis Sfp phosphopantetheinyl transferase (PPTase). Biochemical Sfp PPTase activity, qHTS. Potency, µM, for inactives: max response, negative = inhibition, actives largely listed as inhibitors. actives 3.5% (n = 310,000); active means well fitted inhibition curve with a large enough effect; inconclusive means small, poorly fitted or top-dose-only effect, or another doubt; inactive means no such curve, though single readings can be large or run the other way;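 further: the enzyme is Sfp with the accession as filed and its product quenches rhodamine fluorescence; potency means the concentration at half of the fitted maximal effect; 0% = enzyme reaction without inhibitor and -100% = no enzyme wells; top concentration of the series not given in the record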
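Step 1, compound plus 15 nM Sfp-PPTase, 15 min, room temperature. Step 2, add rhodamine-CoA (5 uM) and BHQ-2-YbbR (12.5 uM). Step 3, read 525/598 nm fluorescence at 0 and 30 min.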
Menin-MLL FL inh – qHTS Assay for Inhibitors Targeting the Menin-MLL Interaction in MLL Related Leukemias: Competition With Fluorescein Labeled MLL-derived Peptide; 290,000 tested, under 10 active; AID 1766, 2009; Fluorescence polarization, fluorescein-MLL peptide displacement from menin; FP activity change, % at 61.4 µM; inconclusive = falling polarisation curve, or a change in total fluorescence; inactive = total fluorescence flat and polarisation flat or rising; no compound was filed as active; the % refers to the polarisation; negative = inhibition;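 further: % of control where 0% means no effect; inhibitors lower the polarisation; unlabelled MLL peptide was the positive control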
TRPV1 potentiator – HTS Assay for Compounds that Act as Potentiators of the Vanilloid Receptor 1. Transient receptor potential cation channel subfamily V member 1 (Homo sapiens), Q8NER1. TRPV1-expressing cells, Fluo-8 calcium influx, capsaicin EC20 potentiation; host cell line not named in the record; control for the full effect not named in the record. potentiation, % at 8.33 µM. actives 0.02% (n = 320,000); active means potentiation above 80%; inconclusive means 30% to 80%; inactive means below 30%; further: 0% is about no effect
Target sequence (Q8NER1 whole entry, looked up): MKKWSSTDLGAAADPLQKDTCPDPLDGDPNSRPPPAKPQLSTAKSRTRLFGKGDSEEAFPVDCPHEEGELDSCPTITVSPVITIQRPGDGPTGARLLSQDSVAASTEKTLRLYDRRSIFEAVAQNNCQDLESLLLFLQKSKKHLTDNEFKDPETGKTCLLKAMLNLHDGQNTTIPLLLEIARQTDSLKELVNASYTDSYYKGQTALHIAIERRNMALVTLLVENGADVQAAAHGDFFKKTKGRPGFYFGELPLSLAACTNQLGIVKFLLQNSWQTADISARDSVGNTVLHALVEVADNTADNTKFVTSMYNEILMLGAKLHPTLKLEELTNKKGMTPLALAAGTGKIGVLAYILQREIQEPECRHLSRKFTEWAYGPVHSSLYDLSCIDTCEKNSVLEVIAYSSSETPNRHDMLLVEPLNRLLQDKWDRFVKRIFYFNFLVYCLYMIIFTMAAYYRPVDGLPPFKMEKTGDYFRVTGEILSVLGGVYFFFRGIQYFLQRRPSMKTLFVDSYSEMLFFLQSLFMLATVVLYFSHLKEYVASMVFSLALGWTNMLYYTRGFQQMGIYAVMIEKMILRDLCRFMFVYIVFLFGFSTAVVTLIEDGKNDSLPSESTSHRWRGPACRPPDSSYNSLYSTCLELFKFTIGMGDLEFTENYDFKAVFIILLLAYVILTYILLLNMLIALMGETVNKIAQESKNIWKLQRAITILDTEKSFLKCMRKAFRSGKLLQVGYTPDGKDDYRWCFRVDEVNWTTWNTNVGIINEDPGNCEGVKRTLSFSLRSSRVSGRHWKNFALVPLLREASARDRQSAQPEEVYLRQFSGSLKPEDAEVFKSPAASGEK
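Fluo-8 calcium influx in TRPV1-expressing cells, kinetic read (ex 480/em 520 nm). Compound added and read 3 min for agonist activity, followed by capsaicin at EC20 final and 2 min further read for enhancement.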
* = called active by the depositor; ? = inconclusive; . = not tested or not shown; [ ] = remark or other dose. Not a hit list; 5.3% or so of the library scored in one or more.

SMILES,Sfp inh,TRPV1 potentiator,Menin-MLL FL inh,ClpP mod,gsp antag,CtBP-E1A blk,gsp ag
Cn1c(SCC(=O)N2CCN(c3ccccc3)CC2)nnc1-c1ccccc1,20%,0,1.3,-0.8%,5%,-1,-6%
COc1ccc(Nc2nnc(SCC(=O)NC3CC3)s2)cc1,.,7,.,-1.6%,-3%,.,5%
O=C(Nc1ccccc1)Nc1c(F)cccc1F,9%,-7,-0.5,.,1%,7,15%[15.4 µM]
CC(NC(=O)Nc1ccc(Cl)cc1)C1CCCO1 (centres undefined),11%,-16,1.7,.,7%,10,0%[15.4 µM]
COc1ccccc1CC(=O)Nc1cc(S(=O)(=O)N2CCOCC2)ccc1N1CCOCC1,.,13,.,2.6%,-3%,4,-10%
COc1ccc(N(CC(=O)N2CCCCCC2)S(=O)(=O)c2ccccc2[N+](=O)[O-])c(OC)c1,11%,16,3.8,.,-3%,1,22%[15.4 µM]
FC(F)(F)c1cccc(-c2nn[nH]n2)c1,18%,-1,-2.8,.,-12%,-2,-3%[15.4 µM]
Cc1ccc(C(=O)NCCCN2CCOCC2)c(Cl)c1,10%,17,-2.5,.,15%,8,-1%
O=C(COC(=O)Cc1ccc(Br)cc1)Nc1ccc(N2CCOCC2)cc1,.,-12,.,1.4%,12%,2,-24%
CNc1ccc(C(=O)c2ccccc2C(=O)O)cc1[N+](=O)[O-],3%,3,-0.7,-3.5%,-10%,.,-62%
Cc1ccccc1C(=O)Nc1ccc2c(C#N)c3nc4ccccc4nc3n2c1,56µM*,-3,?,-4.0%,-8%,-71*,13%
Nc1nc(N)nc(C2C=CCCC2)n1 (centres undefined),.,.,.,.,7%,-15,?
O=C(Nc1cnn(C23CC4CC(CC(C4)C2)C3)c1)c1cnn2c(C(F)(F)F)cc(-c3ccco3)nc12,20%,-17,-1.0,4.9%,?,10,4%
CCCCOC(=O)CSC1=C(C#N)C(c2ccccc2OC)C(C#N)C(=O)N1 (centres undefined),-15%,6,0.9,10.0%,-27%,-1,-3%
CCN(CC)S(=O)(=O)c1ccc(C(=O)OCCN2C(=O)c3cccc4c(N5CCOCC5)ccc(c34)C2=O)cc1,19%,5,?,-1.8%,-13%,-2,4%[15.4 µM]
Cc1ccc(S(=O)(=O)N(C)CC(=O)N(C)CCOc2ccccc2)cc1,.,.,.,-2.9%,.,3,-92%
COc1ccc2c(c1)OC[C@H]1[C@H]2N2C(=O)c3cc(OC)c(OC)cc3NC(=O)[C@@]2(C)[C@H]1c1ccccc1,.,-40,.,-17%,-9%,-23,.
COc1ccc(NC(=O)C23CCC(C)(C(=O)O2)C3(C)C)cc1 (centres undefined),20%,-2,3.6,-2.6%,13%,0,1%
Cc1nnc(SCC(=O)N2CCN(S(=O)(=O)c3ccccc3)CC2)n1Cc1ccccc1,21%,13,3.2,0.4%,1%,-6,-9%
CCn1cc(Cl)c(C(=O)Nc2nccs2)n1,5%,-1,-3.5,-0.5%,11%,4,-2%
Cc1ccc(NC(=O)CSc2nc3[nH]c(=O)cc(O)c3s2)c(Br)c1,.,-6,.,-0.4%,-9%,.,-8%
CC(C)(C)OC(=O)N1CCN(c2ccc(NC(=O)c3ccco3)cc2)CC1,9%,4,-6.4,.,-1%,-13,-9%[15.4 µM]
CN(C)c1ccc(/C=C(/C#N)C(=O)Nc2nc3c(s2)CCN(Cc2ccccc2)C3)cc1,.,.,.,6.5%,-5%,13,-40%[inhibitor]
O=C(C(c1ccccc1)c1ccccc1)N1CCN(Cc2ccncc2)CC1,?,-2,3.1,-0.5%,-3%,1,-2%
Cc1[nH][nH]c(=O)c1C(c1cc(Br)ccc1O)c1c(C)[nH][nH]c1=O,14%,17,-22,1.2%,3%,.,21%
Cc1cc2c(=O)n(NC(N)=O)c(C)nc2s1,19%,6,-1.5,-2.2%,3%,9,7%
CC(C)n1c(C(F)(F)F)nc2cc(C(=O)N3CCOCC3)ccc21,8%,-5,4.3,0.7%,-5%,12,14%[15.4 µM]
O=C(Nc1cc(C(F)(F)F)ccc1Cl)c1ccncc1,5%,-28,4.7,-1.1%,2%,4,0%[15.4 µM]
O=C(CNC(=O)c1ccc(=O)[nH]c1)Nc1ccc(F)c(F)c1,19%,-5,3.8,.,6%,11,-16%[15.4 µM]
COC(=O)c1cccc(N(CC(=O)NC2CCCC2)C(=O)CCC(=O)Nc2cc(C)on2)c1,9%,-14,2.0,.,0%,3,4%
CCN(CC)CCSc1nc(O)c(C(C)C)c(=O)[nH]1,4%,-12,7.4,-1.7%,5%,-6,4%
COC(=O)c1ccc(COC(=O)c2nn(C)c(=O)c3ccccc23)cc1,5%,8,-2.1,-2.1%,-13%,.,-6%
Cc1ccc(NC(=O)C2CCN(S(=O)(=O)c3c(C)nn(C)c3C)CC2)c(Cl)c1,11%,-2,6.1,0.2%,6%,-13,-24%
O=C(Cn1cc2c(n1)CCCCC2)NCCCN1CCOCC1,23%,-6,7.9,0.4%,2%,6,-35%[inhibitor]
CCOc1ccccc1CN1CCN(CC2CC2)CC1CCO (centres undefined),20%,-11,3.6,.,15%,7,-67%[inhibitor]
Cc1occc1C(=O)N1CCN(S(=O)(=O)c2ccccc2)CC1,10%,7,.,-2.6%,6%,-3,-12%
Cc1oc2cc(OCC(=O)O)ccc2c(=O)c1Oc1ccccc1,20%,2,1.4,-5.3%,5%,6,4%
COc1cc(C2NC(=O)c3ccccc3O2)ccc1OC(C)C (centres undefined),5%,3,2.7,-2.2%,7%,-13,-12%[15.4 µM]
CN1C(=O)N(c2ccccc2)C(Nc2nncs2)C1(C)C (centres undefined),20%,2,0.4,0.6%,7%,-1,-8%
CC1(C)OC(C)(C)/C(=C\c2ccc(OCC(N)=O)cc2)C1=O,.,-19,.,-0.9%,-3%,-2,-1%
O=C(COc1cccc2ccccc12)N/N=C/c1ccncc1,0%,-28,-0.4,.,-5%,4,14%
O=C(COc1ccc([N+](=O)[O-])cc1)Nc1ccccc1N1CCCC1,11%,4,4.7,0.6%,-9%,.,2%
O=C(Nc1ccccc1-c1nc2ccccc2s1)c1cccnc1Cl,-12%,-15,4.2,-1.7%,3%,4,?
CC(=O)c1ccccc1NC(=O)COC(=O)c1c(C)nn(-c2ccccc2)c1C,.,6,.,-0.7%,?,4,-6%
C/C(=N\NC(=O)CSc1nc(C)[nH]c1[N+](=O)[O-])c1ccc(F)cc1,-11%,.,0.6,.,-14%,-11,3%
COc1ccc(CN(CC(=O)NCc2ccc(F)cc2)C(=O)CCC(=O)Nc2nccs2)cc1,2%,-11,-0.3,.,-3%,-8,?
Cc1ccc(/C=N/n2nnnc2N)o1,12%,15,1.9,-2.3%,6%,4,0%
CCCC(C)NC(=O)c1cc(S(=O)(=O)N2CCCCCC2)ccc1OC (centres undefined),.,-16,.,-1.6%,1%,.,?
CS(=O)(=O)c1ccc2c(c1)sc1nc(=O)c(/C=C3/C=CC(=O)C(O)=C3)c(N)n12,32µM*,?,?,.,-21%,3,1%[15.4 µM]
Cc1nn(C)c(C)c1S(=O)(=O)N1CCC(CO)(CC2CCCCO2)CC1 (centres undefined),8%,-1,0.5,.,-25%,18,14%[15.4 µM]
Cc1ccc(S(=O)(=O)NC(=O)Nc2cc(C)ccc2F)cc1,12%,-1,0.1,-3.7%,1%,-8,-6%
C[C@H]1CN([C@@H](C)CO)C(=O)c2cccc(NC(=O)c3cnccn3)c2O[C@@H]1CN(C)S(=O)(=O)c1ccc(F)cc1,.,.,.,-4.1%,-6%,-25,-10%
COc1cc(/C=N/NC(=O)CNC(=O)c2ccc3c(c2)OCCO3)ccc1O,26%,-37,0.7,-30%,2%,-8,-37%
Nc1nc(SCC(=O)Nc2cc(Cl)c(Cl)cc2Cl)n[nH]1,.,.,.,0.8%,4%,-5,-8%[15.4 µM]
O=C(OCC#Cc1c(COC(=O)c2ccccc2)nnn1Cc1ccccc1)c1ccccc1,5%,-18,5.2,-5.9%,-1%,.,-3%
CCCCN(CCCC)S(=O)(=O)c1ccc(NS(=O)(=O)c2ccc(NC(C)=O)cc2)cc1,33%[activator],-54,-0.3,0.4%,-13%,1,-32%[inhibitor]
CSc1nc2[nH]ncc2c(=O)n1-c1ccccc1,1%,-4,0.5,-0.8%,6%,8,-18%
O=C(NN=C1CCCC1)c1ccccc1OCc1ccc(Cl)cc1,18%,-8,-6.8,.,-4%,-10,21%
CCOc1ccccc1NC(=O)NC1CCCCCCC1,12%,-5,.,1.4%,1%,3,-11%
